Source: PubChem
D2 ag – human D2 receptor agonism in beta-arrestin assay | P14416 | hit rate 0.084% among 360,000 | DiscoveRx PathHunter D2 beta-arrestin, luminescence, 90 min; 100% = 57 uM dopamine signal | activation, % (test concentration not listed); in the data active = activation above about 40%; inconclusive = about 15% to 40%; inactive = below about 15%; note: compound concentration not given in the record; the text of the record calls up to 30% inactive
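DiscoveRx PathHunter D2 beta-arrestin cells (2,100/well) attached overnight, then compound-stimulated 90 min at 37 C in HBSS/10 mM HEPES/0.1% Tween-20 buffer; beta-galactosidase complementation read by luminescence after 1 h at ambient temperature. Dopamine 57 uM final (EC100) as control.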
D2 PAM – potentiates the human D2 dopamine receptor allosterically. P14416. DiscoveRx D2 beta-arrestin cells, luminescence, 90 min; 100% = 57 uM dopamine signal. potentiation, % (no concentration beside the values). hit rate 0.23% among 360,000. AID 624464; active = potentiation of 50% or more; inconclusive = 30% to 50%; inactive = 30% or less;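 note: compound concentration not given in the record; tested on top of an EC20 dose of dopamine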
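D2 cells co-treated with compound plus 50 nM dopamine (EC20) for 90 min at 37 deg C to detect potentiation. Beta-arrestin recruitment was read as enzyme-fragment luminescence after 1 h at ambient temperature. Full response was set by 57 uM dopamine.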
TRPML1 inh – human mucolipin-1 channel inhibition. TRPML1-inducible cells, Ca2+ dye fluorescence, FDSS; hits give low values; inhibition of EC80 agonist-evoked calcium signal. Q9GZU1. hit rate 0.02% among 390,000. activity change, negative = inhibition, % (test concentration not listed); in the data active means activity change below about -50%; inconclusive means about -30% to -50%; inactive means above about -30%;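 note: stimulus is agonist 54-4 at its EC80 concentration; % is set by controls: 0 for no effect and ±100 for the full control effect; compound concentration not given in the record; the text of the record puts the active cut at -80%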
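Calcium fluorescence in TRPML1-DL cells induced overnight with Tet: a 110 s read after compound pin addition, then a 110 s antagonist read after challenge with 54-4 at 4 uM final (EC80).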
PINK1 modulator – changes PINK1 expression; Potency, µM (top dose mostly 76.6 µM), for the others: at the top dose activation (PINK1 increase), usual class: activators; PINK1 immunofluorescence, high-content cytometry, 24 h; hit rate 0.2% among 410,000; active = well fitted activation curve with a large enough effect; inconclusive = small, poorly fitted or top-dose-only effect; inactive = flat fitted curve, though single readings scatter; cell line not stated here;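 note: potency is the fitted concentration of half-maximal effect; % of control where 0% means no effect; nearly all actives have a fitted effect of over 65% in size; a mitochondrial uncoupler was the plate control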
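A stable cell line was treated with compounds at 5 concentrations for 24 hours, with CCCP as control. PINK1 levels and mitochondrial localization were measured by immunofluorescence with mitochondrial, cell and nuclear markers after fixation, read by laser-scanning cytometry.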
TRPML1 ag – activates the human TRPML1 channel. Q9GZU1. hit rate 0.12% among 410,000. TRPML1-expressing cells, Ca2+ dye fluorescence, FDSS; host cell line not named in the record; reference of the full effect not given here. activation, % (no concentration beside the values). AID 624414; in the data active = activation above about 50%; inconclusive = about 30% to 50%; inactive = below about 30%; note: 0% is about no effect; the text of the record puts the active cut at 80%
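TRPML1-DL cells, Tet-induced overnight (~16 h, 37 degrees C), loaded 45-90 min at room temperature with Ca8 no-wash calcium dye plus quencher. FDSS fluorescence: 10 s baseline, compound pin-transfer, 110 s agonist read, then EC80 54-4 (4uM final) and 110 s antagonist read.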
Six1-Eya2 inh – Six1/Eya2 interaction inhibition; Q15475+O00167; AlphaScreen GST-Six1/His-Eya2 binding, biochemical; hits give low values; control for the full effect not named in the record; activity change, % (concentration not given with the values); hit rate 0.56% among 360,000; in the data active = activity change below about -65%; inconclusive = about -30% to -65%; inactive = above about -30%; note: % is set by controls: 0 for no effect and ±100 for the full control effect
Target sequence (O00167 whole entry, looked up): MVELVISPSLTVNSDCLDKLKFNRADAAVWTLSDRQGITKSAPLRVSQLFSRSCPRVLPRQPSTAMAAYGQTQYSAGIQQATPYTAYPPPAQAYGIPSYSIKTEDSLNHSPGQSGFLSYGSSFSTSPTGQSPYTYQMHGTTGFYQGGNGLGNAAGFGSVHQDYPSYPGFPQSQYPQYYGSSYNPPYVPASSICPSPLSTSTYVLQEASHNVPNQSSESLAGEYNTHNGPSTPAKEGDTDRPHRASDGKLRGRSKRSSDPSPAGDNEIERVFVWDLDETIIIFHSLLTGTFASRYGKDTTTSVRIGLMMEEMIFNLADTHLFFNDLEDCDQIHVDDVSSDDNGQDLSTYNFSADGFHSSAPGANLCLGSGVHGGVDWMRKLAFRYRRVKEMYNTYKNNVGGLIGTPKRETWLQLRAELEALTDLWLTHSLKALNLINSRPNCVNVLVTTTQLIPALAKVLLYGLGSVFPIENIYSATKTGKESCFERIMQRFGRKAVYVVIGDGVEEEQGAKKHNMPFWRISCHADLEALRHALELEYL
Target sequence (Q15475 whole entry, looked up): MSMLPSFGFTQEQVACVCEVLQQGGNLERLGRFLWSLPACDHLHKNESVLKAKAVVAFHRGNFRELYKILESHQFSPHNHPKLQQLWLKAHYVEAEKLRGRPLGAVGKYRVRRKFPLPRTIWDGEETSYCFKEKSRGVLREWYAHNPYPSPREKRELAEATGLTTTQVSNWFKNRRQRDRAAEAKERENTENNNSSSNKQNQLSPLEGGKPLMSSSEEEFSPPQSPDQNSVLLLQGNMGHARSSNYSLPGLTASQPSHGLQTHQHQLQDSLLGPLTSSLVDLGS
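Six1/Eya2 binding was read as AlphaScreen signal after compounds were pinned into GST-Six1 plus His-tagged Eya2 (5X stock 250/500 nM) in pH 8.0 Tris/NaCl/TCEP buffer, beads added, then incubated 1 h, 37 C, dark.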
Numbers without * were called inactive; ? = inconclusive; . = no result given; [ ] = remark or other dose.

no.	Compound	PINK1 modulator	TRPML1 ag	D2 PAM
1	COc1ccc(C(=O)NN2CCOCC2)cc1	-1.4%	-0.4	-3
2	O=C(c1c[nH]c2ccccc12)C(F)(F)F	1.0%	0.3	-14
3	O=C(O)c1nccnc1C(=O)Nc1ccc(Oc2c(Cl)cccc2Cl)nc1	0.4%	-0.1	-6
4	Cc1ccc(NC(=S)NCc2ccc(Cl)cc2)c(C)c1	5.6%	0.9	-9
5	COc1ccc(NC(=O)c2cccc(N3C(=O)C4CC=C(C)CC4C3=O)c2)c(OC)c1 (stereo not given)	6.2%	2.4	3
6	CC(=O)NC1=NN(C(C)=O)C(C)(c2ccccc2)S1 (stereo not given)	.	0.0	-3
7	O=C(NCc1ccccc1)/C(=C/c1ccccc1)NC(=O)c1ccco1	-1.1%	0.2	-5
8	CC1(C)CC(=O)C(=Cc2cn(CCC#N)nc2-c2ccc(F)cc2)C(=O)C1	8.0%	1.0	-1

no.	D2 ag	TRPML1 inh	Six1-Eya2 inh
1	-1.0	0	6
2	2.1	0	9
3	-0.7	-8	3
4	-0.2	-4	-10
5	-1.4	-2	-5
6	-0.4	2	4
7	-1.2	15	2
8	-2.5	9	6

New compounds follow:
no.	Compound	PINK1 modulator	TRPML1 ag	D2 PAM
9	CC(C)NCC(O)COc1ccc2c(c1)CCC2 (stereo not given)	-1.9%	0.7	-24
10	CC12CCC(CC1=O)C2(C)C (stereo not given)	2.2%	0.3	-3
11	Cc1cc(C)c2c(=O)cc(C(=O)NCc3ccc(S(N)(=O)=O)cc3)oc2c1	1.7%	1.0	.
12	COc1cc(/C(C)=N/NC(=O)c2ccc(CSc3nncn3C)cc2)cc(OC)c1OC	1.3%	-0.5	10
13	CCOC(=O)CN=C1CC(C)(C)CC2=C1Sc1ncnc(N(C)C)c1N2	?	-0.1	27
14	CSc1ccc(/C=N/NC(=O)CN2CCN(Cc3ccc(Cl)cc3)CC2)cc1	7.0%	0.3	-21
15	COc1ccccc1N1CC(C(=O)NCCC2=CCCCC2)CC1=O (stereo not given)	1.3%	-0.6	-15
16	CCOc1ccccc1C1C(C(=O)Nc2ccccc2)=C(C)Nc2c(C(=O)Nc3ccc(F)cc3)cnn21 (stereo not given)	0.0%	0.6	.

no.	D2 ag	TRPML1 inh	Six1-Eya2 inh
9	-1.5	23	2
10	0.3	1	6
11	.	-21	.
12	2.6	7	1
13	8.3	3	-2
14	-9.0	0	-14
15	-3.5	-5	7
16	.	-12	.

Other results follow:
no.	Compound	PINK1 modulator	TRPML1 ag	D2 PAM
17	Cc1cccc(N2CCN(CCCNc3ncnc4onc(-c5ccc(F)cc5)c34)CC2C)c1 (stereo not given)	0.7%	1.4	.
18	O=C(c1cccc(C(F)(F)F)c1)N1CCC2(CC1)NCCc1[nH]cnc12	0.3%	0.8	-6
19	O=C(CCS(=O)(=O)c1cccc2nsnc12)NCc1ccccc1Cl	1.8%	2.2	1
20	CNC(=S)NCc1ccc(OC)cc1	5.9%	-0.8	-10
21	COc1cc(C2NC(=O)NC(C)=C2[N+](=O)[O-])cc(OC)c1OC (stereo not given)	-0.5%	.	-9
22	COc1ccc2c(c1)c1nc3ccccc3nc1n2CCCN1C(=O)c2ccccc2C1=O	?	-0.7	-7
23	NS(=O)(=O)c1ccc(CCNC(=O)COC(=O)/C=C/c2ccc(OC(F)F)cc2)cc1	-2.0%	1.7	-1
24	CCc1nc2ccc(C(=O)NC3CCN(Cc4ccccc4)CC3)cn2c1N(CC)CCOC	-1.4%	0.1	-12

no.	D2 ag	TRPML1 inh	Six1-Eya2 inh
17	.	3	.
18	0.4	-8	1
19	0.5	-22	1
20	-1.5	-5	-17
21	-6.6	.	4
22	-0.4	20	1
23	0.2	3	-1
24	-3.4	.	-4

(continued)
no.	Compound	PINK1 modulator	TRPML1 ag	D2 PAM
25	Cc1nc(-c2coc3c(CN(C)C)c(O)ccc3c2=O)cs1	3.6%[38.3 µM]	-0.3	-3
26	Cc1cc(C)cc(C(=O)NCCc2csc(-c3ccc(C(F)(F)F)cc3)n2)c1	-0.6%	3.2	.
27	Cc1cccc(C)c1OCc1cc(C(=O)N2CC3C[C@@H]4CC2C[C@H](C3)C4)no1	16%	3.1	12
28	COc1ccc(OC)c(CN2CCN(C(=O)c3ccc(F)cc3)CC2)c1	-0.8%	0.6	-27
29	Cc1cc(C)c(S(=O)(=O)c2ccc(C(C)(C)C)cc2)c(Cl)n1	-0.7%	0.0	3
30	O=C(COc1cc(Cl)c(Cl)cc1Cl)Nc1ccc([N+](=O)[O-])cc1Cl	-1.2%	1.9	1
31	O=C(Cc1ccccc1)NCc1ccc(F)cc1	2.5%	0.0	-2
32	COc1cc2c(cc1OC)C(COc1ccc3c(C)cc(=O)oc3c1)N(C(=O)C(C)C)CC2 (stereo not given)	0.8%	-1.0	.

no.	D2 ag	TRPML1 inh	Six1-Eya2 inh
25	-0.1	10	3
26	.	11	.
27	2.2	42	3
28	-4.2	13	6
29	-1.0	33	1
30	0.8	2	0
31	0.7	5	0
32	.	-8	.

Next section
no.	Compound	PINK1 modulator	TRPML1 ag	D2 PAM
33	CCS(=O)(=O)c1nc2ccccc2n1Cc1ccccc1Cl	13%	1.6	-5
34	O=C(Cc1ccccc1)NC(Nc1ccccc1)C(Cl)(Cl)Cl (stereo not given)	-1.6%	3.4	-7
35	CCOc1cc(C2CC(=O)Nc3c2c(C)nn3-c2nc(C)cc(C)n2)ccc1O (stereo not given)	1.3%	-0.5	.
36	C=C(c1cn(C(C)=O)c2ccccc12)c1cn(C(C)=O)c2ccccc12	?	-0.5	-12
37	Cc1ccccc1N=Cc1cccc(O)c1O	0.5%	-0.6	17
38	CCCCNc1cc(NC(C)=O)cc2cc(OC)c(OC)cc12	.	-0.2	?
39	Cc1ccccc1OCC(=O)NCc1ccccc1	-1.7%	2.3	-12
40	Cc1ccc(OCCCCn2c(CCNC(=O)C(C)(C)C)nc3ccccc32)cc1	-1.2%	2.9	.

no.	D2 ag	TRPML1 inh	Six1-Eya2 inh
33	2.2	-3	1
34	-1.4	24	5
35	.	13	.
36	-8.4	17	-7
37	3.3	-2	?
38	7.5	0	-13
39	-6.2	8	25
40	.	53	.

(list continues)
no.	Compound	PINK1 modulator	TRPML1 ag	D2 PAM
41	COc1ccc(S(=O)(=O)N(C)CC(=O)NCc2cccnc2)cc1C	-0.8%	-0.5	-4
42	COc1cccc(NC(=O)CN(C)C(=O)c2ccc(-c3ccc(Cl)cc3)o2)c1	-0.9%	0.4	-5
43	N#C/C(=N\Nc1cccc(Cl)c1)C(=O)c1ccccc1	25µM*	1.9	-2
44	O=C(O)COC(=O)C1C(c2ccccc2)C(C(=O)O)C1c1ccccc1 (stereo not given)	0.2%	-0.2	-3
45	CCOC(=O)c1cccc(NC(=S)NCc2ccc(C)cc2)c1	0.9%	-0.7	-11
46	COc1ccc(C(=O)NC2CC(C)(C)Cc3occc32)cc1 (stereo not given)	0.0%	1.3	6
47	Cc1cc(C)cc(NC(=O)C2CCCCN2S(=O)(=O)c2ccccc2)c1 (stereo not given)	1.8%	2.4	-10
48	O=C1c2ccccc2C(=O)C1c1ccc(O)cc1	1.7%	0.7	-7

no.	D2 ag	TRPML1 inh	Six1-Eya2 inh
41	-0.3	-9	3
42	-4.0	-2	2
43	-3.3	16	-12
44	2.2	3	-10
45	0.1	6	-6
46	-3.7	4	-2
47	-0.3	18	-1
48	-1.6	33	16

Reformatted: 3 of the compounds above.
42. COc1cccc(NC(=O)CN(C)C(=O)c2ccc(-c3ccc(Cl)cc3)o2)c1
48. O=C1c2ccccc2C(=O)C1c1ccc(O)cc1
41. COc1ccc(S(=O)(=O)N(C)CC(=O)NCc2cccnc2)cc1C
Compound | 42 | 48 | 41
PINK1 modulator | -0.9% | 1.7% | -0.8%
TRPML1 ag | 0.4 | 0.7 | -0.5
D2 PAM | -5 | -7 | -4
D2 ag | -4.0 | -1.6 | -0.3
TRPML1 inh | -2 | 33 | -9
Six1-Eya2 inh | 2 | 16 | 3

Continued:
no.	Compound	PINK1 modulator	TRPML1 ag	D2 PAM
49	CC(Cl)C(=O)NN=C(c1ccccc1)c1ccccc1 (stereo not given)	-1.5%	2.3	-14
50	COc1ccc(C(CNC(=O)c2ccco2)N2CCOCC2)cc1 (stereo not given)	0.6%	0.7	-3
51	Cc1ccc(S(=O)(=O)N2CCCC2=O)c(C)c1N(C)S(C)(=O)=O	0.3%	-0.9	-9
52	COC(C(=O)Nc1ccnn1C1CCN(Cc2cnn(C(C)C)c2)CC1)c1ccccc1 (stereo not given)	1.4%	-0.3	-8
53	Cc1ccc(NS(=O)(=O)c2ccc3[nH]c4c(c3c2)CCCC4)cc1N(C)C	?	4.8	.
54	COC(=O)c1c(NC(=O)CCNCc2ccco2)sc2c1CCC2	14%	0.9	-6
55	Cc1nc(C)c(-c2csc(NCCc3ccccc3)n2)s1	4.6%	-0.2	9
56	Cc1cc(C(=O)N2CCN(c3cccc(Cl)c3)CC2)c(C)o1	3.0%	-0.2	22

no.	D2 ag	TRPML1 inh	Six1-Eya2 inh
49	-19	23	13
50	-3.2	9	0
51	1.8	-7	13
52	-4.8	14	4
53	.	-8	.
54	-3.1	-13	-18
55	-3.3	1	0
56	-3.2	3	-9

Next records follow:
no.	Compound	PINK1 modulator	TRPML1 ag	D2 PAM
57	CCCNC(=O)COC(=O)C1CCN(S(=O)(=O)c2ccc3c(c2)OCCO3)CC1	1.8%	0.0	1
58	Cc1ccccc1Nc1nc(N)nc(CSc2nnc(C)n2C)n1	-0.3%	0.3	0
59	Cc1ccc(-c2onc(C)c2C)cc1S(=O)(=O)N1CCC(C)CC1	0.2%	4.3	.
60	Cc1cc(Nc2cccc(Cl)c2Cl)n2ncnc2n1	-0.4%	0.1	-6
61	N#CC1CC(c2ccc([N+](=O)[O-])cc2)=NN1c1ccc([N+](=O)[O-])cc1 (stereo not given)	5.0%	8.8	4

no.	D2 ag	TRPML1 inh	Six1-Eya2 inh
57	-0.7	8	19
58	1.8	3	1
59	.	70	.
60	-5.8	88	7
61	6.2	-4	-4

Looked up above:
N#CC1CC(c2ccc([N+](=O)[O-])cc2)=NN1c1ccc([N+](=O)[O-])cc1 (stereo not given) @ TRPML1 ag = 8.8
Cc1ccccc1Nc1nc(N)nc(CSc2nnc(C)n2C)n1 @ Six1-Eya2 inh = 1

Compounds as they come; 1% or so of the library scored in one or more.
